High-throughput results as filed in PubChem.
2A firefly: FMDV 2A StopGo reporter, firefly signal. 120,000 compounds, 0.23% hits. HEK cells with a luciferase reporter of 2A StopGo recoding. Potency, µM (highest dose often 57.5 µM), inactives show at the top dose signal change, negative = less light; active = well fitted falling curve with a large enough effect; inconclusive = small, poorly fitted or top-dose-only effect; inactive = no such curve, though single readings can be large or run the other way; further: nearly all actives have a fitted effect of over 60% in size; overnight with compound
StopGo RLuc: FMDV 2A StopGo reporter, Renilla signal; HEK cells with a luciferase reporter of 2A StopGo recoding; Potency, µM (top dose mostly 57.5 µM), inactives show top-dose signal change, negative = less light; 120,000 compounds, 0.32% hits; AID 1745857; active means well fitted falling curve with a large enough effect; inconclusive means small, poorly fitted or top-dose-only effect; inactive means no such curve, though single readings can be large or run the other way; further: nearly all actives have a fitted effect of over 55% in size; overnight with compound
An asterisk follows results filed as active; ? = inconclusive; & = joins results of further samples; [ ] = dose if it differs, or a comment. On the % scale 0 is the no-effect control and ±100 the full control effect; potency means the concentration at half of the fitted maximal effect.

structure: O=C(NCCCN(Cc1ccccc1)C(=O)c1cccnc1)c1nc2ccccc2c(=O)[nH]1
  2A firefly: 0%
  StopGo RLuc: 3%

structure: CCC(CC)C(=O)n1ccn(S(=O)(=O)c2ccc(C)cc2)c1=O
  2A firefly: -15%
  StopGo RLuc: -18%

structure: CCOc1ccccc1CNC(=O)CCCN1C(=O)COc2ccc(C)cc21
  2A firefly: 23%
  StopGo RLuc: 0%

structure: O=c1cc(-c2cccc(F)c2)oc2ccc(Cl)cc12
  2A firefly: 40%[activator]
  StopGo RLuc: -9%

structure: Cc1ccc(C)c(NC(=O)c2nc3ccccc3nc2N2CCCC2)c1
  2A firefly: 0%
  StopGo RLuc: 16%

structure: O=C(/C=C/c1ccc(-c2ccc(Cl)cc2Cl)o1)c1ccccc1
  2A firefly: 23%
  StopGo RLuc: -12%

structure: O=C(CSc1ccc2c(c1)OCCCO2)Nc1cccc2ccccc12
  2A firefly: 9%
  StopGo RLuc: 0%

structure: CCc1ccccc1NC(=O)CN1C(=O)COc2ccc(S(=O)(=O)N3CCCCCC3)cc21
  2A firefly: -11%
  StopGo RLuc: 1%

structure: COc1cccc(C(=O)Nc2ccc(C3(C)CC=NO3)cc2)c1 (stereo not given)
  2A firefly: 99%[activator]
  StopGo RLuc: 18%

structure: C/C(=N\NC(=O)C1CC1c1ccc(C(C)(C)C)cc1)c1ccccc1 (stereo not given)
  2A firefly: 35%[activator]
  StopGo RLuc: 13%

structure: CCCn1nc(C(=O)NC(c2ccccc2)c2ccccc2)c2ccccc2c1=O
  2A firefly: ?
  StopGo RLuc: ?

structure: CCN(c1cccc(C)c1)c1ncnc2c1cnn2-c1cccc(Cl)c1
  2A firefly: 32%[activator]
  StopGo RLuc: -2%

structure: Cc1noc(-c2ccc(-c3noc(-c4ccccc4)n3)cc2)n1
  2A firefly: 31%[activator]
  StopGo RLuc: -8%

structure: COc1ccccc1-c1nn2c(=O)cc(CN3CCN(C(=O)COc4ccccc4Cl)CC3)nc2s1
  2A firefly: 16%
  StopGo RLuc: 5%

structure: CC(C)(CNC(=S)Nc1cccc(C(F)(F)F)c1)N1CCCCC1
  2A firefly: -3%
  StopGo RLuc: -1%

structure: Cc1ccc(-c2cc(C(=O)N3CCN(CC(=O)NC4CC4)CC3)c3ccccc3n2)o1
  2A firefly: 274%[activator]
  StopGo RLuc: 56%[activator]

structure: COc1ccccc1-n1cnnc1SC(C)C(=O)c1ccc(F)cc1 (stereo not given)
  2A firefly: -4%
  StopGo RLuc: 13%

structure: Cc1cc(F)ccc1Nc1nc2ccc(Cl)cc2n2cnnc12
  2A firefly: 22%
  StopGo RLuc: 1%

structure: COc1ccc(NC(=O)Cc2c(Cl)cccc2Cl)cc1S(N)(=O)=O
  2A firefly: -4%
  StopGo RLuc: 12%

structure: Cc1cc(NC(=O)CSc2ncc(-c3ccc(Cl)cc3)o2)ccc1F
  2A firefly: -7%
  StopGo RLuc: -11%

structure: Cc1nccn1CC1CCc2c(c3ccccc3n2C)C1=O (stereo not given)
  2A firefly: -1%
  StopGo RLuc: -12%

structure: COc1ccc(CNC(=O)Nc2ccc(F)c(Cl)c2)cn1
  2A firefly: 131%[activator]
  StopGo RLuc: 8%

structure: Cn1c(=O)c2c(nc(NCCCN3CCOCC3)n2Cc2ccccc2Cl)n(C)c1=O
  2A firefly: -1%
  StopGo RLuc: -7%

structure: COc1ccc(N2CCN(C(c3ccc(F)cc3)c3sc4nc(-c5ccco5)nn4c3O)CC2)cc1 (stereo not given)
  2A firefly: -20%
  StopGo RLuc: 6%

structure: Cc1cc(C)cc(-n2c(SCC(N)=O)nc3c(oc4ccccc43)c2=O)c1
  2A firefly: -13%
  StopGo RLuc: 14%

structure: Cc1cccc(-n2ncc(C(=O)N3CCOCC3)c2C2CCN(C(=O)OC(C)(C)C)CC2)c1
  2A firefly: -8%
  StopGo RLuc: -9%

structure: COc1ccc(NC(=O)Cc2csc(C)n2)cc1
  2A firefly: 18%
  StopGo RLuc: -10%

structure: Cn1c(NCCCCO)nc2c1c(=O)n(Cc1ccc(Cl)cc1)c(=O)n2C
  2A firefly: -7%&-5%
  StopGo RLuc: -9%&-10%

structure: CC(CNC1CC1)c1ccccc1 (stereo not given)
  2A firefly: 16%
  StopGo RLuc: -8%

structure: COCCN1CCc2nc(SCC(=O)Nc3ccc(C)c(Cl)c3)[nH]c(=O)c2C1
  2A firefly: -1%
  StopGo RLuc: 12%

structure: COc1ccc(C2CC(=O)c3cc(-c4nc(-c5cccc(Cl)c5)cs4)c(=O)[nH]c3C2)cc1 (stereo not given)
  2A firefly: -9%
  StopGo RLuc: -10%

structure: COc1cccc(CNC(=O)CN2C(=O)N(c3cc(C)ccc3C)S(=O)(=O)c3ccccc32)c1OC
  2A firefly: -23%
  StopGo RLuc: 1%

structure: CCn1c(Cc2ccc(OC)cc2)nnc1SC(C)c1nc2ccccc2c(=O)[nH]1 (stereo not given)
  2A firefly: 3%
  StopGo RLuc: 28%

structure: CSc1ccc(CN(C)CC(=O)NC(=O)NC2CCCC2)cc1
  2A firefly: 6%
  StopGo RLuc: 22%

structure: CCOC(=O)c1c(NC(=O)c2ccccc2OCC)sc2c1CCC(CC)C2 (stereo not given)
  2A firefly: -19%
  StopGo RLuc: -13%

structure: CCOc1cccc2c1Oc1nc(-c3ccccc3)nc(SCC(=O)Nc3ccc(F)cc3)c1C2
  2A firefly: -5%
  StopGo RLuc: -4%

structure: COCc1ccccc1C(=O)NCCC(C)C
  2A firefly: 12%
  StopGo RLuc: 8%

structure: Cc1ccc(C(=O)NC2CCSC2=O)cc1C (stereo not given)
  2A firefly: 0%
  StopGo RLuc: 1%

structure: CC(C)CNC(=O)C1CCCC(C(=O)NCC(C)C)C1 (stereo not given)
  2A firefly: 2%
  StopGo RLuc: 5%

structure: CNC(=O)c1ccccc1C(=O)c1cc(C)ccc1C
  2A firefly: -4%
  StopGo RLuc: -3%

structure: N#CC1=C(N)OC2=C(C(=O)CC(c3ccccc3)C2)C1c1ccsc1 (stereo not given)
  2A firefly: 8%
  StopGo RLuc: 38%[activator]

structure: COCCNC(=O)CSc1nc2cc3c(cc2c(=O)n1CCCC(=O)NCc1ccc(OC)cc1)OCO3
  2A firefly: -16%
  StopGo RLuc: -5%

structure: CC(=O)Nc1c(C)nn(-c2ccccc2)c1N1CCC(C(=O)Nc2ccccc2F)CC1
  2A firefly: -19%
  StopGo RLuc: -2%

structure: CC(C)CCC(CC(C)O)C(=O)NN (stereo not given)
  2A firefly: -3%
  StopGo RLuc: 1%

structure: COc1cc(OC)c(NS(=O)(=O)c2ccc3oc(=O)c4ncn(C)c4c3c2)cc1Cl
  2A firefly: -2%
  StopGo RLuc: -11%

structure: O=C(CCCCl)c1ccc(F)cc1
  2A firefly: -13%
  StopGo RLuc: -14%

structure: O=C(O)C1CC2CCCC(C1)C2=O (stereo not given)
  2A firefly: 8%
  StopGo RLuc: -5%

structure: CCc1ccc(NC(=O)c2ncoc2-c2ccc(OC)c(OC)c2)cc1
  2A firefly: 0%
  StopGo RLuc: -8%

structure: Cc1ccc(C)c(N2CCN(C(=O)CSCc3ccccc3Cl)CC2)c1
  2A firefly: 3%
  StopGo RLuc: -12%

structure: CCCCS(=O)(=O)c1oc(-c2ccc(F)cc2)nc1S(=O)(=O)c1ccc(C)cc1
  2A firefly: ?
  StopGo RLuc: 2%

structure: O=C(NC1CCN(Cc2ccccc2)C1)c1cc2ccccc2oc1=O (stereo not given)
  2A firefly: 69%[activator]
  StopGo RLuc: -15%

structure: Cc1ccccc1C(=O)n1nc(-c2cccnc2)nc1NCc1ccc(F)cc1
  2A firefly: -7%
  StopGo RLuc: -19%

structure: Cc1oc(C)c2c(=O)cc(-c3ccc4c(c3)OCO4)cc(OC(=O)c3ccc(Cl)cc3)c12
  2A firefly: -13%
  StopGo RLuc: 8%

structure: O=C(OCc1ccccc1)c1cc(=O)c2ccccc2o1
  2A firefly: 1%
  StopGo RLuc: -5%

structure: Cc1ccc(NC(=O)Cc2nc(-c3cc(C)n(-c4cc(C)on4)c3C)cs2)c(C)c1
  2A firefly: 6%
  StopGo RLuc: -13%

structure: O=C(O)c1ccc(CS(=O)c2ccc(F)cc2)o1 (stereo not given)
  2A firefly: 0%
  StopGo RLuc: 8%

structure: Cc1cc(=O)oc2c(C)c(OCC(=O)NC3CCS(=O)(=O)C3)ccc12 (stereo not given)
  2A firefly: 0%
  StopGo RLuc: -14%

structure: Cc1nc(NC(=O)C2CCN(c3ccc(C#N)cn3)CC2)sc1C
  2A firefly: 29%
  StopGo RLuc: 2%

structure: O=C(CNc1ncnc2nc[nH]c12)NCCc1ccccc1
  2A firefly: 9%
  StopGo RLuc: 0%

structure: COC(=O)c1[nH]c2ccc(F)cc2c1NC(=O)c1ccccc1F
  2A firefly: 11%
  StopGo RLuc: 3%

structure: Cc1ccsc1CN(C(=O)COc1ccccc1Cl)C1CCS(=O)(=O)C1 (stereo not given)
  2A firefly: 16%
  StopGo RLuc: -24%

structure: COc1ccccc1C(=O)N1CCN(c2oc(-c3ccc(F)cc3)nc2C#N)CC1
  2A firefly: -19%
  StopGo RLuc: -21%

structure: CC(NC(=O)CN1CSCC1=O)c1ccc(F)cc1F (stereo not given)
  2A firefly: -1%
  StopGo RLuc: -9%

structure: CC(NC(=O)c1cccc(S(=O)(=O)N(C)C)c1)c1cc2ccccc2o1 (stereo not given)
  2A firefly: -3%
  StopGo RLuc: 40%[activator]

structure: CNc1nc(-c2cn(CCC#N)c3ccccc23)cs1
  2A firefly: 0%
  StopGo RLuc: -6%

structure: O=C(CN1N=C(c2ccccc2)c2cc(Cl)ccc2S1(=O)=O)Nc1ccc(F)cc1F
  2A firefly: -1%
  StopGo RLuc: -7%

structure: CC(=O)N1CCc2cc(NC(C)C(=O)Nc3ccccc3OC(F)F)ccc21 (stereo not given)
  2A firefly: 24%
  StopGo RLuc: 17%

structure: CC(C)OC(=O)CCNC(=O)c1ccc(CS(C)(=O)=O)cc1
  2A firefly: 13%
  StopGo RLuc: -11%

structure: C=C(C)CNC(=S)NNC(=S)NC1CCCC(C)C1C (stereo not given)
  2A firefly: 10%
  StopGo RLuc: 66%[activator]

structure: CCCCNc1nc2c(c(=O)n(C)c(=O)n2C)n1Cc1ccccc1Br
  2A firefly: -5%
  StopGo RLuc: -6%

structure: COc1cccc(CNC(=O)COC(=O)c2nn(C)c(=O)c3ccccc23)c1
  2A firefly: 6%
  StopGo RLuc: 2%

structure: CCN(CC)c1nc2ccccc2nc1C(=O)Nc1cc(C(=O)OC)cc(C(=O)OC)c1
  2A firefly: 9%
  StopGo RLuc: 7%

structure: Cc1ccc(C(=O)NC(C2CC2)C2CC2)cn1
  2A firefly: -7%
  StopGo RLuc: -2%

structure: COc1ccc(C(NC(=O)Cc2cccs2)C(=O)Nc2ccc3c(c2)OCO3)cc1 (stereo not given)
  2A firefly: 0%
  StopGo RLuc: 163%[activator]

structure: CCN(CC)S(=O)(=O)c1ccc(-c2nc(C#N)c(NCC(C)C)o2)cc1
  2A firefly: 15%
  StopGo RLuc: 121%[activator]

structure: CC(C)CNC(=O)CN1CCN(c2cccc(F)c2C#N)CC1
  2A firefly: 8%
  StopGo RLuc: 12%

structure: Cc1ccccc1Nc1cc(C(=O)NC2CCC(C)CC2)c2ccccc2n1 (stereo not given)
  2A firefly: 105%[activator]
  StopGo RLuc: 51%[activator]

structure: Cc1ccc(S(=O)(=O)c2nnn3c2nc(N2CCCC2)c2sccc23)cc1C
  2A firefly: -22%
  StopGo RLuc: -7%

structure: CCSc1ccccc1C(=O)N1CCN(c2nc3ccccc3s2)CC1
  2A firefly: ?
  StopGo RLuc: 1%

structure: Cc1ccccc1OCC(=O)OCc1cc(=O)n2nc(C3CCCCC3)sc2n1
  2A firefly: -5%
  StopGo RLuc: -8%

structure: C[C@H](NC(=O)/C=C/c1ccccc1)C(=O)O
  2A firefly: -4%
  StopGo RLuc: -6%

structure: CCOC(=O)c1sc(Nc2ccccc2)nc1C(F)(F)F
  2A firefly: 0%
  StopGo RLuc: -4%

structure: COc1ccc(CCNC(=O)CS(=O)(=O)Cc2nc(-c3ccc(C)cc3)oc2C)cc1OC
  2A firefly: -69%
  StopGo RLuc: -48%

structure: CC(=O)c1ccc(-c2ccc(C(=O)OC(C)C#N)o2)cc1 (stereo not given)
  2A firefly: ?
  StopGo RLuc: 11%

structure: C=Cc1ccc(COc2ccc3oc(-c4ccccc4)c(C(=O)OCC)c3c2)cc1
  2A firefly: -14%
  StopGo RLuc: -12%

structure: COC(=O)c1cc2sc(Cl)cc2n1Cc1c(C)cc(C)cc1C
  2A firefly: -3%
  StopGo RLuc: 1%

structure: CCC(C(=O)OCC(=O)c1c(C)[nH]c2ccccc12)c1ccccc1 (stereo not given)
  2A firefly: 58%[activator]
  StopGo RLuc: 2%

structure: CCc1nonc1NC(=O)COc1ccc(C)c(C)c1
  2A firefly: -2%
  StopGo RLuc: -6%
